Cruzain inh Det – qHTS Assay for Promiscuous and Specific Inhibitors of Cruzain (with detergent). Potency, µM, inactives show max response, negative = inhibition, hits mostly inhibitors. Cruzipain (Trypanosoma cruzi), P25779. actives 0.43% (n = 200,000). purified cruzain, Z-FR-AMC fluorescence, 0.01% Triton;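 also: plate controls were neutral wells for no effect and buffer without enzyme for full effect; nearly all actives have a fitted effect of over 40% in size; top concentration of the series not given in the record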
Target sequence (P25779 123-467 limits assumed): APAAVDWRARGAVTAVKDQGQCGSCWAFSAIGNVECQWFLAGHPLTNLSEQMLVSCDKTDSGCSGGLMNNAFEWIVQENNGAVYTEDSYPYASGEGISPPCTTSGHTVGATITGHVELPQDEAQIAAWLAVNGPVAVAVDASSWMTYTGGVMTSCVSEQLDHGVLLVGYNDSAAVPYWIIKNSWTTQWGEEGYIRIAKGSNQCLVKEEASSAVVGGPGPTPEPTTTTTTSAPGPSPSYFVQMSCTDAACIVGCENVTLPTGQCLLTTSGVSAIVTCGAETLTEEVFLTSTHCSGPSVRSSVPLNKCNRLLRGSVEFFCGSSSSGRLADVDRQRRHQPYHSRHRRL
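Purified cruzain (1.5 nM final) was preincubated with compounds for 15 min at room temperature in 100 mM sodium acetate pH 5.5, 5 mM DTT, 0.01% Triton X-100. Reaction started with 2 uM Z-FR-AMC; AMC fluorescence change over 60 s gave activity.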
Marburg entry inh – qHTS for inhibitors of binding or entry into cells for Marburg Virus; Marburg virus pseudotyped entry inhibition, cell reporter; control for the full effect not named in the record; about a third of the inactives were read at about 46 µM; Potency, µM (top dose mostly 37.8 µM), without a hit: top-dose activity change, negative = inhibition, most hits filed as inhibitors; actives 1.8% (n = 300,000); AID 540276, 2011; active = well fitted inhibition curve with a large enough effect; inconclusive = small, poorly fitted or top-dose-only effect, or effect the other way; inactive = flat fitted curve, though single readings scatter; tested in HEK293 cells; about a fifth of its hits are not listed in these tables; also: % is scaled to controls: 0 for no effect and ±100 for the full control effect; luciferase read-out
RE007 growth inh – qHTS Assay for Inhibitors of the HIV-1 protein Vpr; S. pombe RE007 Vpr strain, BacTiter-Glo ATP luminescence, 24 h; control for the full effect not named in the record; Potency, µM (titrated, usually from 92.2 µM), without a hit: at the top dose activity change, negative = less growth; actives 0.21% (n = 360,000); AID 651644, 2012; active = well fitted falling curve with a large enough effect; inconclusive = small, poorly fitted or top-dose-only effect; inactive = no such curve, though single readings can be large or run the other way;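 also: % is scaled to controls: 0 for no effect and ±100 for the full control effect; nearly all actives have a fitted effect of over 50% in size; the assay follows cell death caused by Vpr and the record does not say whether a fall means rescue or toxicity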
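Fission yeast RE007 carrying one integrated HIV-1 vpr copy, seeded at OD 0.01 in PMG+AL medium with 23 nL pinned compound. Grown 24 h at 30 degrees; viability read by BacTiter-Glo luminescence after 5 min.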
LASV entry inh – qHTS for Inhibitors of binding or entry into cells for Lassa Virus | Lassa virus pseudotype entry inhibition, cell reporter; control for the full effect not named in the record | Potency, µM (doses to about 37.9 µM), for the others: at the highest dose activity change, negative = inhibition, usual class: inhibitors | actives 1.2% (n = 300,000); active means well fitted inhibition curve with a large enough effect; inconclusive means small, poorly fitted or top-dose-only effect, or effect the other way; inactive means flat fitted curve, though single readings scatter; tested in HEK293 cells; also: % is scaled to controls: 0 for no effect and ±100 for the full control effect; nearly all actives have a fitted effect of over 50% in size; luciferase read-out
SARS PLpro yeast – qHTS of Yeast-based Assay for SARS-CoV PLP; S. cerevisiae expressing SARS-CoV PLpro, growth rescue; control for the full effect not named in the record; Potency, µM (top dose mostly 32.9 µM), without a hit: at the highest dose activity, positive = growth rescue; actives 0.19% (n = 330,000); active means well fitted rising curve with a large enough effect; inconclusive means small, poorly fitted or top-dose-only effect; inactive means no such curve, though single readings can be large or run the other way; also: 0% is about no effect; nearly all actives have a fitted effect of over 55% in size; growth read by luminescence after 48 h
Cruzain noTriton – qHTS Assay for Promiscuous and Specific Inhibitors of Cruzain (without detergent). Potency, µM, inactives show max response, negative = inhibition, actives largely listed as inhibitors. Cruzipain (Trypanosoma cruzi), P25779. purified cruzain, Z-FR-AMC fluorescence, no detergent. AID 1476, 2009. actives 2.3% (n = 200,000);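 also: plate controls were enzyme without inhibitor for no effect and buffer without enzyme for full effect; nearly all actives have a fitted effect of over 40% in size; top concentration of the series not given in the record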
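Purified cruzain at 1.5 nM, pre-incubated 15 min with compound at room temperature in 100 mM sodium acetate pH 5.5, 5 mM DTT, 0.00005% Triton X-100. Reaction started with 2 uM Z-FR-AMC; AMC fluorescence increase over 60 s gives rate.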
NS1 inh – qHTS Assay for Inhibitors of Influenza NS1 Protein Function | actives 0.4% (n = 270,000) | Potency, µM (doses to about 46.1 µM), for the others: at the top dose activity, positive = more growth | S. cerevisiae slowed by influenza A NS1, growth recovery by OD600 | AID 2326, 2010; active means well fitted rising curve with a large enough effect; inconclusive means small, poorly fitted or top-dose-only effect; inactive means no such curve, though single readings can be large or run the other way; also: nearly all actives have a fitted effect of over 50% in size
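In this qHTS, NS1 from influenza A is expressed in budding yeast, where it slows growth. Cells are switched from glucose to 2% galactose medium (pH 6.0, -URA), treated with compound, and growth recovery is read at OD600.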
2A StopGo – High Throughput Screening for Foot and Mouth Disease Virus Antivirals | AID 1159524, 2015 | Potency, µM (top dose mostly 57.9 µM), without a hit: at the top dose signal change, negative = less light | human cells with a luciferase reporter of 2A StopGo recoding; control for the full effect not named in the record | actives 1.2% (n = 410,000); active = well fitted falling curve with a large enough effect; inconclusive = small, poorly fitted or top-dose-only effect; inactive = no such curve, though single readings can be large or run the other way; tested in HEK293T cells; also: % is scaled to controls: 0 for no effect and ±100 for the full control effect; nearly all actives have a fitted effect of over 45% in size; luciferase light after 4 h
* = called active by the depositor; u = inconclusive; x = not tested or not shown; & = joins results of further samples; [ ] = another dose, or the depositor's remark. Unless noted, calls follow the shape of the dose curve; as a rule, active = well fitted curve in the direction sought with a large enough effect; inconclusive = small, poorly fitted or top-dose-only effect, or another doubt; inactive = no such curve, though single readings can be large; an effect the other way counts as inactive or inconclusive. Potency is read from the fitted curve at half-maximal effect.

SMILES	Cruzain inh Det	Marburg entry inh	RE007 growth inh	LASV entry inh	SARS PLpro yeast	Cruzain noTriton	NS1 inh	2A StopGo
CC(C)(C)OC(=O)N1CCC(c2c(C(=O)NCc3ccc4c(c3)OCO4)cnn2-c2ccccc2Cl)CC1	-11%	x	x	-26%[46.1 µM]	x	7%	x	-11%
O=[N+]([O-])c1ccc(NCCCN2CCOCC2)c2ncccc12	x	x	-1%	x	0%	x	1%	-9%
CC1=NN(c2ccccc2)C(=O)/C1=C/c1ccc(Cl)cc1	x	x	5%	x	-5%	x	u	-22%
Cc1cccn2c(=O)nc(SCC(=O)c3ccc(Cl)cc3)nc12	x	u	-12%	-4%	x	x	x	-17%
CCN(CC)CCOC(=O)C(c1ccccc1)C1CCCCC1 (stereo not given)	-0.1%	x	-1%[18.4 µM]	x	-2%	-10%	x	-23%&-11%
CCOC(=O)C1CCCN(C(=O)Cn2ncc3c([nH]c4ccccc43)c2=O)C1 (stereo not given)	x	u	0%	u	-5%	x	4%	u
Cc1ccc([C@@H]2[C@@H]3C(=O)N(C)C(=O)[C@@H]3[C@]3(C)C(=O)N(CCO)CC(=O)N23)o1	x	x	9%	x	-2%	x	-10%	-9%
Cc1onc(-c2ccccc2Cl)c1C(=O)Nc1cccc(-c2cn3cccnc3n2)c1	-16%	u	-9%	-19%[14.3 µM]	-3%	u	-13%	u
Cc1cc(C)cc(N2CC(C(=O)Nc3cc(C)on3)CC2=O)c1 (stereo not given)	x	14%[46.1 µM]	12%	20%[46.1 µM]	-1%	x	9%	2%
O=C(CCN1C(=O)C2C3C=CC(C3)C2C1=O)N1CCCCC1 (stereo not given)	x	-9%	-3%	u	0%	x	x	0%
CC(=O)Nc1ccc(S(=O)(=O)N(C)CC(=O)OCC(=O)c2ccc[nH]2)cc1	x	-2%	8%	0%[46.1 µM]	x	x	x	-17%
COc1ccc(/C=C/c2nnc(NC(=O)CSc3ccc(C)cc3)s2)cc1	x	5%[46.1 µM]	-9%	u	3%	x	-36%	-9%
CC(CCc1ccccc1)NC(=O)c1ccc2nc(N3CCOCC3)sc2c1 (stereo not given)	x	u	-13%	-17%	-2%	x	x	u
CN(C)C(=O)c1noc2cc([N+](=O)[O-])ccc12	-2.1%	-3%	-16%	-4%	-3%	-4%	-1%	10%
COc1ccc(/C=N/S(=O)(=O)c2ccccc2)cc1OC	x	-4%[14.2 µM]	7%	5%	0%	x	6%	-8%
Cc1cccc(NC(=O)c2ccc(S(=O)(=O)N(C)C)cc2)c1	-3.4%	x	-2%	x	2%	-2%	-49%	1%
CC1(C)CC(=O)N(c2cc(Cl)cc(Cl)c2)C(=O)C1	x	u	-19%	13%[46.1 µM]	0%	x	4%	-14%
CC(=O)N1CCN(C(=O)c2cc(C)nc3ccccc23)CC1	x	x	13%	x	0%	x	5%	-12%
COc1ccc(/C=C/C(=O)O)cc1S(=O)(=O)N1CCCc2ccccc21	x	-7%[46.1 µM]	-2%	-3%	0%	x	4%	-7%
CCC(=O)Nc1ccc(N2CCN(C(=O)c3ccccc3C)CC2)cc1	-1.0%	2%	4%	7%	2%	-11%	-4%	-5%
COc1ccc(-n2c(=O)c3sc4ccccc4c3n(Cc3ccccc3C)c2=O)cc1OC	0.9%	0%[46.1 µM]	x	-8%[46.1 µM]	x	-14%	x	-20%
COc1cc(N2CCCC2)ccc1C=O	x	15%[46.1 µM]	2%	u	0%	x	0%	-11%
COc1ccc(OCC(=O)NNC(=O)Cc2coc3cc(OC)ccc23)cc1	5.5%	u	4%	1%	-10%	13%	3%	-11%
Cc1ccc(OCc2cc(C(=O)NC(C)Cc3cnccn3)no2)cc1C (stereo not given)	x	-8%	-25%	1%	-2%	x	-27%	-19%
CC(C)(C)c1ccc(-n2ncc3c2CCCC3NC(=O)CCCn2cncn2)cc1 (stereo not given)	x	-9%[46.1 µM]	-6%	u	-2%	x	-17%	-16%
COc1ccc(N(C(=O)c2ccccc2OC(C)=O)C(C)C2CC2)cc1 (stereo not given)	5.3%	u	9%	10%	x	5%	-5%	-3%
CCN(CC)S(=O)(=O)c1cccc(NC(=O)c2ccc(SC)cc2OC)c1	x	-14%[46.1 µM]	1%	u	-1%	x	x	u
COc1ccccc1OCCNC(=O)C(=O)c1c[nH]c2ccccc12	x	x	13%	x	-6%	x	-6%	4%
COC(=O)CSc1nc2ccc(NC(C)=O)cc2s1	0.7%	1%	-22%	-1%	-6%	8%	-49%	11%
COc1ccc(-n2ccc(=O)c3c2CCCC3=O)cc1	2.8%	-10%	0%	6%	-4%	-4%	3%	-4%
CCOc1ccc(C(=O)N[C@H](C(=O)Nc2ccc(OC)c(S(=O)(=O)N3CCOCC3)c2)C(C)C)cc1	x	x	-1%	x	1%	x	-26%	-1%
COC(=O)c1ccc(NC(=O)CCS(=O)(=O)c2ccc(Br)s2)cc1	-5.3%&-1.3%	11%&0%[46.1 µM]	31%	-9%[46.1 µM]	-10%	-15%&4%	-4%	-27%&-28%
CCCc1nc(SCc2ccc(OCC)cc2)n[nH]1	x	u	9%	1%[46.1 µM]	-2%	x	-1%	-7%
ClCC1=Nc2ccccc2Cc2ccccc21	x	u	-16%	-12%	x	x	x	-24%
CCN1CCN(C(=O)c2ccc3c(c2)N(Cc2cccc(Cl)c2)C(=O)c2ccccc2S3(=O)=O)CC1	-0.3%	x	x	u	x	3%	x	-1%
CCCCOc1ccc(S(=O)(=O)NNC(=O)C2Cc3c(ccc4ccccc34)O2)cc1 (stereo not given)	-11%	-2%	-12%	0%	-4%	u	17%	4%
Cc1cccc(NC(=O)CCN2C(=O)c3cccc([N+](=O)[O-])c3C2=O)c1	x	x	1%	x	-6%	x	17%	-7%
C[C@H](NC(=O)C1CCN(S(=O)(=O)c2ccccc2)CC1)C(=O)NCc1ccc(Cl)cc1Cl	x	u	9%	-39%[46.1 µM]	3%	x	-10%	-21%
COc1ccc(-n2c(/C=C/c3cccc(F)c3)nc3ccccc3c2=O)c(OC)c1	x	21%[46.1 µM]	-16%	-2%[46.1 µM]	1%	x	8%	-26%
COc1ccc(N(CC(=O)N2CCCCCC2)S(=O)(=O)c2ccc(OC)c(OC)c2)cc1	x	-3%[46.1 µM]	0%	-12%[46.1 µM]	3%	x	4%	26%
O=C(/C=C/c1ccccc1)Nc1ccc(NC(=O)c2cccs2)cc1	x	x	7%	x	0%	x	3%	-1%
CCOC(=O)N1CCC(n2c(SCC(=O)Nc3ccccc3OC)nc3ccccc3c2=O)CC1	1.3%	u	5%	-23%	0%	u	5%	-11%
CCn1c(=O)c2sccc2n(Cc2ccccc2)c1=O	x	x	13%	x	9%	x	11%	-7%
CN(C)C(=O)c1ccc(-c2nnc(NCc3ccccc3)c3ccccc23)cc1	-4.0%	6%	-5%	-12%	u	u	-4%	0%
Fc1ccccc1OCCSc1nc2ccccc2o1	0.8%	u	-24%	7%	-2%	1%	-38%	45%[activator]
CCn1ncc(CN2CCC(Oc3ccc(C(=O)N4CCCC4)cc3)CC2)c1C	x	23%[46.1 µM]	6%	-5%[46.1 µM]	-2%	x	-9%	-7%
Cc1ccnn1CCC(=O)N1CCCC(Nc2ccc(F)c(F)c2)C1 (stereo not given)	x	-7%[46.1 µM]	0%	-2%[46.1 µM]	4%	x	u	-3%
COc1cccc(/C=N/Nc2snc(SC)c2C#N)c1	-2.8%	u	-11%	5.6µM*	-7%	-13%	-30%	-10%
O=C(CN1CCN(Cc2ccc(F)cc2)C1=O)NCc1ccccc1	0.7%	6%[46.1 µM]	x	7%[46.1 µM]	x	-1%	x	31%[activator]
COc1ccc(-c2noc(-c3ccccc3C(=O)NCC3CCCO3)n2)cc1 (stereo not given)	x	-27%[46.1 µM]	-23%	u	-2%	x	-4%	4%
Following part:
SMILES	Cruzain inh Det	Marburg entry inh	RE007 growth inh	LASV entry inh	SARS PLpro yeast	Cruzain noTriton	NS1 inh	2A StopGo
COc1ccccc1CNC(=O)Cn1c(=O)oc2cc(S(=O)(=O)N3CCC(C)CC3)ccc21	-4.7%	u	x	-10%[46.1 µM]	x	-2%	x	0%
Cc1c(C(=O)OCc2nc3scc(-c4ccccc4)c3c(=O)[nH]2)cccc1[N+](=O)[O-]	-4.6%	u	-2%	14%	22%	u	6%	14µM*
Cn1c(N)c(N2CCN(c3ccccc3)CC2)c(=O)[nH]c1=O	x	7%[46.1 µM]	-4%	-25%[46.1 µM]	-2%	x	-1%	u
O=C(CCCN1C(=O)c2ccccc2C1=O)NCc1cccnc1	0.2%	1%	6%	6%	1%	-2%	3%	6%
Cc1ccc(SCCC(=O)OCn2nnc3ccccc3c2=O)cc1	x	-6%[46.1 µM]	u	x	-1%	x	x	-1%
CC1CC(C)CN(CC(=O)N2CCOCC2)C1 (stereo not given)	x	x	14%	x	0%	x	4%	-7%
COc1ccc(NC(=O)c2cc(-c3ccc(F)cc3)no2)cc1OC	-9.1%	x	x	4%[46.1 µM]	x	-4%	x	20%
CCC1Oc2ccccc2N(CC(=O)Nc2ccc3c(c2)OCCO3)C1=O (stereo not given)	-5.1%	22%	10%	14%	1%	1%	-3%	15%
CCOC(=O)c1c(C)n(-c2ccccc2)c2ccc(O)cc12	x	0%[46.1 µM]	11%	-18%	1%	x	2%	u
O=C(CCSCc1ccccc1Cl)NC1CCCC1	-0.2%	u	4%	2%	-20%	-2%	-12%	32%[activator]
CCOc1ccc(-n2c(SCC(N)=O)nc3c([nH]c4ccccc43)c2=O)cc1	-1.6%	x	-9%	x	18%	-8%	-78%	u
CCCc1ccc(C(=O)NNC(=O)c2ccc(Br)cc2)cc1	-3.5%	1%	-11%	-1%	2%	u	13%	-5%
O=C(CCC1CCCC1)NCCS(=O)(=O)N1CCN(c2ccccc2)CC1	x	1%	0%	-2%	2%	x	x	-18%

From PubChem BioAssay
